Vaccinia pol inh = blocks vaccinia virus processive DNA synthesis. in vitro processive DNA synthesis, absorbance read-out; stronger effect = lower value; some inactives read as strong as hits. normalized absorbance, % (no concentration beside the values). actives 0.94% (n = 46,000);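 active = replicate mean up to 90% and picked by the depositor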;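 also: 100% = median of the test wells of a plate; 100 nL library stock went into each well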
Active calls of the source: *. A portion of the library. The share of hits here may be higher or lower than overall.

Structure | Vaccinia pol inh
CCC1CCCCN1C(=O)Cn1c(C(=O)OC)cc2sc(Cl)cc21 (stereo unspecified) | 101
Cc1ccc2[nH]c3c(c2c1)CCCC3N1CCc2ccccc21 (stereo unspecified) | 94
Cc1c(C)n(CC(O)CN2CCN(CCO)CC2)c2ccccc12 (stereo unspecified) | 98
O=C(O)CCC(=O)c1ccc2c(c1)OCCCO2 | 98
CN(C)/C=C(\C(=S)c1ccccc1)c1ccccc1 | 93
CN(Cc1ccccc1)C(=O)COC(=O)c1cnc(Cl)c(Cl)c1 | 96
O=C(Cn1ccn(-c2ccccc2)c(=O)c1=O)NCCc1ccccc1 | 107
Cc1cc(NC(=O)COc2ccc(Cl)cc2Cl)n(CCC#N)n1 | 92
CCN(C(=O)CSCc1ccco1)C1CCCCC1 | 100
NC(=O)c1cnn2c(C(F)(F)F)cc(-c3ccc(F)cc3)nc12 | 96
COc1ccc(-n2c3c(cc(C(N)=O)c2=O)C(=O)CC(C)(C)C3)cc1 | 100
COC(=O)c1ccc2c(c1)CCO2 | 91
COC(=O)NC(=C(Cl)Cl)S(=O)(=O)c1ccccc1 | 103
Cc1cc(CSc2nc(C)cc(C)n2)c2ncccc2c1 | 104
ON=C1CCN(c2ncc(C(F)(F)F)cc2Cl)CC1 | 96
OCCn1c(Cc2ccccc2)nc2ccccc21 | 98
CC1Sc2cc(S(=O)(=O)C(C)CC(=O)N3CCc4ccccc43)ccc2NC1=O (stereo unspecified) | 98
CCN(CC)c1ccc2cc(C(=O)Nc3ccccc3)c(=N)oc2c1 | 100
O=C(c1ccc(F)cc1F)N1CCN(Cc2ccc3c(c2)OCO3)CC1 | 105
O=C(Nc1ccc(S(=O)(=O)N2CCCC2)cc1)C1CC1 | 118
CC1CCN(C(=O)COC(=O)c2sc3ccccc3c2Cl)CC1 | 106
Cc1cccc(NC(=O)C(Cc2ccccc2)NS(=O)(=O)c2cccc3cccnc23)c1 (stereo unspecified) | 102
O=C(O)CCC(=O)N1CCNC(=O)C1 | 96
O=C(Nc1ccccc1)Nc1ccc(Br)cc1 | 100
N#Cc1ccc2c(c1)N(CCCN1CCC(O)CC1)c1ccccc1S2 | 100
N#Cc1c(C(F)(F)F)nc2sc3ccccc3n2c1=N | 101
CCc1ccc(/C=N/n2c(C)nnc2-n2nc(C)cc2C)cc1 | 100
O=C(Nc1ccc(Cl)cc1)OCc1nccn1Cc1ccc(Cl)cc1 | 99
COc1cc2c(cc1OC)CN(C(=O)c1sc(-c3cnccn3)nc1C)CC2 | 98
NS(=O)(=O)c1ccc(N=C2NC(=O)C(CC(=O)Nc3ccccc3)S2)cc1 (stereo unspecified) | 112
C=CCNC(=O)COc1nc(-c2cccs2)cc(C(F)(F)F)n1 | 94
O=C(CN1C(=O)c2ccccc2S1(=O)=O)N1CCc2ccccc21 | 98
CN(N)P(=O)(c1ccccc1)c1ccccc1 | 98
CCc1nnc(NC(=O)c2ccccc2)s1 | 100
Clc1ccccc1N1CCN(C2=Cc3ccccc3CC2)CC1 | 111
CC(C)c1nc(N2CCN(C(=S)NC3CCCCC3)CC2)c(C#N)c2c1CCCC2 | 100
Cc1nonc1NC1(Nc2nonc2C)C(=O)c2ccccc2C1=O | 98
CC1(C)CC2CC(C)(CN2C(=O)c2ccccc2)C1 (stereo unspecified) | 102
CCCN(CCC)C(=O)c1c(NC(=O)c2ccco2)sc2c1CCC(C)C2 (stereo unspecified) | 98
Cc1nn(-c2ccccc2)c(N)c1Sc1c(F)c(F)c(F)c(F)c1F | 99
Oc1ccc(Br)cc1C=Nc1cccc2nsnc12 | 99
O=C(Nc1cccc(C(F)(F)F)c1)NC1CC(=O)N(Cc2ccccc2)C1 (stereo unspecified) | 96
O=C1CC(c2ccccc2)Oc2ccc(Cl)cc21 (stereo unspecified) | 99
C=CCn1c(=S)[nH]c2sc3c(c2c1=O)CCCC3 | 102
Cc1nn(-c2ccccc2)c(C)c1N=Cc1c(O)ccc2ccccc12 | 98
O=C1c2cccnc2C(=O)N1Cc1ccc(S(=O)(=O)N2CCc3ccccc32)cc1 | 103
COc1ccccc1NC(=O)c1ccc(C(C)(C)C)cc1 | 100
CSc1ccc(Cl)c(C(=O)OCC(=O)NCc2ccccc2)c1 | 96
O=C(NCc1cn2ccccc2n1)c1ccco1 | 101
CCc1ccc(-c2nc(CSCC(=O)N3CCc4ccccc43)c(C)o2)cc1 | 104
CNC(=O)CN1C(=O)c2cccnc2Oc2ccc(Cl)cc21 | 98
C=CCSc1nnc(-c2nnc(SCC=C)n2CC)n1CC | 102
CCOC(=O)CC1(C)NNC(=S)NN1 | 100
Clc1nsnc1N1CCOCC1 | 100
COC(=O)c1cc2c(N)c(C(=O)OC)sc2nc1C(OC)OC | 102
Cc1ccc(-n2c(N)c(C#N)c3nc4ccccc4nc32)c(C)c1 | 98
CCOC(=O)c1cnc2ccc(Cl)cc2c1-c1ccccc1 | 77
CCOC(=O)CN1CSC2=C(C#N)C(c3ccc(Cl)cc3)CC(=O)N2C1 (stereo unspecified) | 88
Cc1nc(C(=O)Oc2ccc(Cl)cc2)sc1C(=O)Oc1ccc(Cl)cc1 | 99
C=CCNC(=O)c1cc(-c2cccs2)nc2ccccc12 | 104

Continuation.
Structure | Vaccinia pol inh
COc1ccc(Cl)cc1N=Cc1ccc2ncccc2c1 | 102
Cc1c(NC(=O)/C=C/c2ccc(Cl)cc2Cl)c(=O)n(-c2ccccc2)n1C | 100
O=C(O)CCC(=O)Nc1ccc(Br)cn1 | 100
CCCCC1CCC(C(=O)OCC(=O)c2ccc(Br)cc2)CC1 (stereo unspecified) | 94
O=C1CC2Sc3ccccc3N=C2N1Cc1ccccn1 (stereo unspecified) | 101
COc1ccc(Cn2c(=O)oc3ccccc32)cc1 | 102
Cc1cc(O)c(C(=O)c2ccccc2)c(=O)o1 | 102
Cc1[nH]n(-c2ccccc2)c(=O)c1C1=c2ccccc2=NC1=O | 96
CCOC(=O)c1cc(NC(=O)c2ccccc2)c(=O)oc1C(F)(F)F | 99
CCOC(=O)CSc1nc2ccc(Br)cc2c2nc3ccccc3n12 | 102
O=C(NCCc1ccc(Cl)cc1)c1ccc(CS(=O)c2ccc(Cl)cc2)o1 (stereo unspecified) | 110
COC(=O)c1cc2ccccc2nc1-c1ccc(F)cc1 | 106
CCC1(C(=O)c2ccccc2)C2c3cc(Br)ccc3OC(=O)C21C(=O)c1ccco1 (stereo unspecified) | 97
CCOC(=O)Cc1nnc(NC(=O)C(CC)Sc2nnc3c4ccccc4n(C)c3n2)s1 (stereo unspecified) | 100
O=C(CNC(=O)c1ccc(Cl)cc1)c1ccc(Cl)cc1 | 103
CC(C)c1nnc(NC(=O)Cc2ccccc2)s1 | 101
CCCOc1ccc(C(=O)O)cc1 | 100
Nc1ccc2nc(-c3ccccc3-c3nc4ccc(N)cc4[nH]3)[nH]c2c1 | 101
O=c1cc(-c2ccccc2)ss1 | 100
c1ccc(C2=Nc3ccccc3SC2c2nc3ccccc3[nH]2)cc1 (stereo unspecified) | 84
Cc1c(CC(=O)NN)sc2ccc(Cl)cc12 | 93
Cc1ccc(-c2[nH]c3ccccc3c2SCCNC(=O)c2ccncc2)cc1 | 98
CSc1nnc(NC(=O)c2ccc(C)c(C)c2)s1 | 99
CCc1ccc(C(=O)Cc2cc3cccc(OC)c3oc2=O)cc1 | 100
COc1ccc(Cn2c3ccccc3c3nc4ccccc4nc32)cc1 | 100
CN(CC(=O)Nc1ccc(F)cc1F)S(=O)(=O)c1ccc2c(c1)c(=O)n(C)c(=O)n2C | 105
O=C(Oc1ccccc1N1CCCCC1)c1sccc1Cl | 96
NC(=O)CSc1nc2c([nH]c3ccccc32)c(=O)n1-c1ccccc1 | 100
CC(=O)Cn1cc(Cl)c(=O)c(Cl)c1 | 90
CCOC(=O)C1=C(CSc2nc(CC)c(C)cc2C#N)OC(N)=C(C#N)C1c1ccc(F)cc1 (stereo unspecified) | 100
CCOC(=O)C(C)N1c2cccc3cccc(c23)S1(=O)=O (stereo unspecified) | 94
CC1SC(/N=C/c2ccc(O)cc2)=NNC1=O (stereo unspecified) | 100
CCOC(=O)CN1C(=O)/C(=C/c2ccccc2)SC1=S | 82*
O=C(NC1CCCC1)C1CCN(S(=O)(=O)N2CCCCC2)CC1 | 96
Cc1[nH][nH]c(=O)c1C1=NCCC1 | 91
c1ccc(C(Sc2ncn[nH]2)c2ccccc2)cc1 | 92

Four entries from above, field by field:
Cc1[nH][nH]c(=O)c1C1=NCCC1
  Vaccinia pol inh = 91

CCOC(=O)C(C)N1c2cccc3cccc(c23)S1(=O)=O (stereo unspecified)
  Vaccinia pol inh = 94

O=C(Oc1ccccc1N1CCCCC1)c1sccc1Cl
  Vaccinia pol inh = 96

COc1ccc(Cn2c3ccccc3c3nc4ccccc4nc32)cc1
  Vaccinia pol inh = 100

Remaining list, next part
Structure | Vaccinia pol inh
C/C(=N\O)c1cc(Cl)cc(Cl)c1O | 94
CCOC(=O)C1CCN(C(=O)c2cnn(-c3ccccc3)c2-n2cccc2)CC1 | 102
O=C(O)c1ccc(-n2nnnc2SCC(=O)N2CCOCC2)cc1 | 100
CNc1nc(-c2cccc(N)c2)cs1 | 99
Cc1nn(-c2ccccc2)nc1C(=O)ON1C(=O)C2C3C=CC(O3)C2C1=O (stereo unspecified) | 93
CCC(C(=O)NC1CCCCC1)n1c(C(=O)OC)cc2sc(Cl)cc21 (stereo unspecified) | 99
CCC(=O)Nc1cc(C(F)(F)F)ccc1N1CCOCC1 | 102
C=CCn1c(Cc2c[nH]c3ccccc23)nnc1SCC(=O)Nc1ccc(OC)cc1 | 99
CCC12CC3CC(O)(CC(O)(C3)C1)C2 | 99
O=C1c2ccncc2C(=O)N1C1CCCCC1 | 100
C1=C(CCNc2ncnc3nc[nH]c23)CCCC1 | 93
Cc1cc(NC(=O)CSCc2ccccc2)no1 | 101
CCc1nnc(NC(=O)c2cc3ccccc3cc2OC)s1 | 92
CN(C(=O)COC(=O)c1ccc(C#N)cc1)C1CCCCC1 | 104
Cc1ccc(O)c(C2=Nc3ccccc3C2(C)C)c1 | 104
O=C(NCCO)C1=NN=CC1 | 99
CC1Cc2ccccc2N1S(=O)(=O)c1cc(Br)cnc1N (stereo unspecified) | 100
COc1ccc(C2C3C(=O)NC(=O)C3ON2c2ccccc2)cc1 (stereo unspecified) | 100
Cn1c(C(=O)Nc2cnc3ccccc3c2)cc2c(=O)n(C)c3ccccc3c21 | 108
Clc1ccc(Sc2cccc(Cl)c2Cn2cccc2)cc1 | 96
CCOc1cc2c(cc1OCC)-n1cccc1C(c1cccc(F)c1F)NC2 (stereo unspecified) | 99
COc1ccccc1C(=O)CSc1ccccc1Cl | 94
CC(=NCc1ccc2c(c1)OCO2)C1=C(O)c2ccccc2C1=O | 101
N#CC1(NC(Cc2ccccc2)c2ccccc2)CCCCCC1 (stereo unspecified) | 89
CCN1CCN(C(c2cccs2)C(C)NS(=O)(=O)c2ccccc2)CC1 (stereo unspecified) | 101
COc1ccc(-c2ccnc(SCC(=O)c3ccc(Cl)cc3)n2)cc1 | 99
COc1ccc(CNCC2CCCO2)cc1 (stereo unspecified) | 104
CCc1ccc(NC(=O)CCC(=O)c2ccccc2)cc1 | 100
CCOC(=O)C1CCN(S(=O)(=O)c2c(C)n(C)c(=O)n(C)c2=O)CC1 | 115
O=C(CSCC(=O)Nc1ccccc1F)Nc1ccc2ccccc2c1 | 100
O=C1O[C@@H]2C[C@H]3C[C@@H]2[C@@H]1[C@H]3C(=O)N1CCCc2ccccc21 | 104
CCOc1ncnc2sc(-c3ccccc3)cc12 | 98
COCc1cc(O)c(O)c(O)c1-c1c(COC)cc(O)c(O)c1O | 100
O=C(NC1CC1)C1C2C=CC3(CN(Cc4ccccc4Cl)C(=O)C13)O2 (stereo unspecified) | 97
O=C(Nc1ccccc1SCCS(=O)(=O)c1ccc(Cl)cc1)c1ccccc1Cl | 114
CC(=O)N/C(=C\c1cccs1)C(=O)O | 100
CCCCn1c(SCC(=O)NC2CCCC2)nc2c(sc3ccccc32)c1=O | 103
CC(C)CN(CC(C)C)S(=O)(=O)c1ccc(C(=O)Nc2nnc(-c3cccs3)o2)cc1 | 98
COc1ccccc1OCCSc1nc2ccccc2o1 | 101
CC(C)N1CCN(C(=O)c2ccco2)CC1 | 105
CC(OC(=O)c1cccc(Cl)c1)c1ccc[n+](C)c1 (stereo unspecified) | 100
Cn1c(SCc2cc(F)cc(F)c2)nnc1-c1ccc2nonc2c1 | 101
CCN(CC)Cc1c(CC(C)C)oc(C)c1C(=O)O | 105
CN(Cc1ccccc1)C(=O)C1CCN(c2nnc(-n3cccc3)s2)CC1 | 93
CC(=O)N1CC(=O)Nc2ccc(F)cc2C1c1ccc(F)cc1 (stereo unspecified) | 100
Cc1ccccc1Cn1c(CCCO)nc2ccccc21 | 96
O=C(CSC1=Nc2ccccc2C2=NC(Cc3ccccc3)C(=O)N12)c1ccc(F)cc1 (stereo unspecified) | 101
Cn1c(=O)c(-c2[nH][nH]c(=O)c2/C=C2/C=Nc3ccccc32)c(O)c2ccccc21 | 101
C/C(C#N)=C(/N)c1ccccc1 | 104
CCCN(CCC)C(=O)c1c[nH]c2ccc(S(=O)(=O)Nc3ccc(CC)cc3)cc2c1=O | 98
CCn1c(=NC(=O)CSCC(=O)Nc2nc(-c3ccccc3)cs2)sc2ccccc21 | 104

Source: PubChem (ICCB-Longwood Screening Facility, Harvard Medical School)
